MLL AF4-AF9 inh – inhibitors of human MLL-AF4/AF9 interaction; P42568; AlphaScreen, biotin-AF4 peptide binding to FLAG-AF9; inhibition, % at 10 µM; hit rate 0.47% among 350,000;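 active = every replicate reaching a set inhibition limit, whatever the replicate mean, cut at about 25% in these data; inconclusive = mean inhibition reaches that limit but some replicates miss it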;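 also: 0% = plate neutral control median and 100% = total signal loss; the record names both 10 and 1 µM as test concentration; the first replicate is given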
Target sequence (P42568 whole entry, looked up): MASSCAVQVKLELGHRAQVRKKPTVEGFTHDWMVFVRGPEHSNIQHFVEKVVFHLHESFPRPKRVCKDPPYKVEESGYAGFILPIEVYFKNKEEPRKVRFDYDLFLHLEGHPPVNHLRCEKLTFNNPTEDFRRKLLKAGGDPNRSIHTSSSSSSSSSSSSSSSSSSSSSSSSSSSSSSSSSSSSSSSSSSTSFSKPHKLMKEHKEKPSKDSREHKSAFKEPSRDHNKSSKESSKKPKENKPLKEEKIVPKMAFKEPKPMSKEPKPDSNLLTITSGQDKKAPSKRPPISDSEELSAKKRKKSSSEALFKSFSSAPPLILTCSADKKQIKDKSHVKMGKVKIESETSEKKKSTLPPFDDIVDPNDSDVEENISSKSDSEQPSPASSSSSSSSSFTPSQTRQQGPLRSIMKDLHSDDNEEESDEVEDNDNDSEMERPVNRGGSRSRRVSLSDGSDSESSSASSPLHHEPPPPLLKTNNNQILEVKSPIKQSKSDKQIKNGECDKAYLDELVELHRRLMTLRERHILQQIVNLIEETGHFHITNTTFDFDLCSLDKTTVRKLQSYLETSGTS
ALR H2O2 inh – human ALR oxidase inhibition via reduced H2O2. purified ALR, DTT oxidation, H2O2 HRP-luminol luminescence. inhibition, % (no concentration beside the values). hit rate 3.8% among 290,000. AID 485317;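 active = mean and each replicate at 75% or more; inconclusive = only one of the two met; inactive = neither met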;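 also: stock transfer was 7.5 nL into about 7.5 µL; 0% = neutral wells and 100% = wells with inactivated enzyme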
Vif TR-FRET – inhibitors of Vif binding to APOBEC3G peptide, primary screen, biochemical, TR-FRET, GST-Vif 1-94, biotin-A3G peptide, dose response retest (AID 1117319); TR-FRET GST-Vif / biotin-A3G peptide binding; higher % means a stronger effect; test concentration not given here; strong numbers were not always called active; inhibition, %; hits with a dose series show IC50 in µM; hit rate 0.57% among 260,000;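 active = above the screen mean plus three standard deviations and confirmed in dose response; inconclusive = results disagree or hit not tested in dose response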;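 also: Vif residues 1-94 fused to GST binding biotinylated APOBEC3G peptide 110-148; 0% = full assay without inhibitor and 100% = GST in place of GST-Vif; retest series ran down from 100 µM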
E coli growth – inhibitors of Escherichia coli growth | OD600 absorbance (no concentration beside the values) | OD600, 23 h; active compounds read low | hit rate 0.21% among 330,000 | AID 1053175;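 active = OD600 absorbance below the run mean of sample wells minus 3.6 SD, in any replicate, cut at about 0.56 in these data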;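 also: stock transfer was 300 nL into about 60 µL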
rRNA inh HTS – selective bacterial rRNA inhibition in E. coli; GFP signal change (wild-type ribosome), % (test concentration not listed); AID 720706; hit rate 1.6% among 350,000; E. coli WT GFP vs humanized-ribosome RFP mutants, fluorescence, 24 h; active compounds read low; DMSO median 0, no signal -100;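 active = significant combined selectivity score with lowered wild-type GFP, culture density cut under 30%, mutant RFP and density less affected; inactive = any of these conditions unmet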; also: one replicate is shown; some compounds called inactive have numbers as strong as hits
FGF22 binding – shifts melting point of recombinant human FGF22; Q9HCT0; recombinant FGF22 thermal shift, SYPRO orange fluorescence; percent of sucrose octasulfate shift, DMSO zero; calls only at 9.99 µM; hit rate 1.5% among 340,000; AID 651658;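 active = melting point raised past a set limit in the mean and every replicate; inconclusive = no clear call; three in four hits are not shown here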
HNF4A DNA FP – change in binding of human HNF4 alpha to DNA | hit rate 0.3% among 360,000 | activity change, % at 10 µM | HNF4a-FITC DNA binding, fluorescence polarization, 1 h | P41235; in the data active = activity change above about 30%, passing the limit was not always enough;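 also: controls were the assay level and a saturating level of protein; the project sought stronger binding though the title names inhibitors; some compounds called inactive have numbers as strong as hits; positive values seem to mean higher polarization but the record does not say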
Target sequence (P41235 whole entry, looked up): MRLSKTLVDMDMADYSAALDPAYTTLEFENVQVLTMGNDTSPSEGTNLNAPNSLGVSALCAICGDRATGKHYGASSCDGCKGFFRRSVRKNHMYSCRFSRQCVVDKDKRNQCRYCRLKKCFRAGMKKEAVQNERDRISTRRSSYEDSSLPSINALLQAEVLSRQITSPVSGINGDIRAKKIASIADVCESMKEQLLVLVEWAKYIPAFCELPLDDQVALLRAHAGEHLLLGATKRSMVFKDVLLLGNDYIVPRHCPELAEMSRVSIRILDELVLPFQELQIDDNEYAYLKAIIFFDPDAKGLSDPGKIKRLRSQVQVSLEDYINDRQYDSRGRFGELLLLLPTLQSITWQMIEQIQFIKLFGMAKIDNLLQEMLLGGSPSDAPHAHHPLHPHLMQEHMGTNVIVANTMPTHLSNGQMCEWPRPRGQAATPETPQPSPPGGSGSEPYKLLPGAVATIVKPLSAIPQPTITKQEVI
rRNA inh HTS OD600 – also measured in rRNA inh HTS; calls as there; OD600 change, %; measured here: OD600 growth;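 optical density of the mix in the first replicate; 0 = DMSO median and -100 = no signal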
rRNA inh HTS RFP – second read-out of rRNA inh HTS, no call of its own (marks repeat the call); RFP signal change, %; measured here: RFP humanized mutant strains;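 first replicate; 0 = DMSO median and -100 = no signal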
* hit, by the source's call; i = inactive; ? = inconclusive; · = not tested or not shown; & = joins results of further samples. The list is partial, so the mix of outcomes need not match the whole.

SMILES	MLL AF4-AF9 inh	ALR H2O2 inh	Vif TR-FRET	E coli growth	rRNA inh HTS	rRNA inh HTS OD600	rRNA inh HTS RFP	FGF22 binding	HNF4A DNA FP
CCOC(CNC(=O)CN1C(=O)COc2ccc(S(=O)(=O)N3CCCC3)cc21)OCC	-1.5	0	-1%	0.7	9	8	-3.6	i	0.6
CCn1c(CSc2nnc(-c3ccoc3C)n2C)nc2cc(S(=O)(=O)N(C)C)ccc21	·	5	-2%	0.72	·	·	·	·	0.3
CCC(C)(C)C1CCC2(CC1)NC(=O)N(CC(=O)NCCOc1ccccc1)C2=O (configuration not stated)	-1.1	1	-13%	0.72	16	11	1.6	i	3.5
CO[C@H]1CN(C)C(=O)c2cc(NC(=O)C3CC3)ccc2OC[C@@H](C)N(Cc2ccc(F)cc2)C[C@@H]1C	3.4	·	·	·	2	-26	5.8	i	·
COCC(C)n1c(C)cc(C(=O)COc2ccc(C)nc2[N+](=O)[O-])c1C (configuration not stated)	2.0	-15	-4%	0.66	7	-6	-0.7	i	1.1
C=C(C)COc1ccc(-c2nc(N)nc(C(F)(F)F)c2-c2ccc(OC)cc2)c(O)c1	-4.4	1	2%	0.7	-15	0	-4.0	i	3.0
COc1ccccc1NC(=O)C1CCC(CNc2c(N3CCCCC3)c(=O)c2=O)CC1 (configuration not stated)	-1.0	3	·	0.68	6	1	-7.5	i	-2.6
CCCc1cc(=O)[nH]c(SCc2cc(=O)oc3cc(C)c(C(C)C)cc23)n1	-12	45	-4%	0.73	·	·	·	i	0.3
CCN(CC)c1ccc(/C=N/N2CCN(Cc3ccc(Cl)cc3)CC2)c(O)c1	-1.9	0	·	·	8	5	1.6	i	-4.6
COc1ccc(S(=O)(=O)N(C)C[C@H]2Oc3cc(C#CC4CC4)ccc3S(=O)(=O)N([C@@H](C)CO)C[C@@H]2C)cc1	3.5	·	·	·	-4	-1	1.0	i	·
C(=N\c1c(-c2ccccc2)nc2n1CCS2)/c1ccccc1	·	12	-1%	·	·	·	·	·	2.3
CC(NC(=O)CN1CCc2ccccc21)c1ccccc1 (configuration not stated)	·	-2	·	0.69	·	·	·	·	4.8
O=C(N/N=C/C1CC2CCC1C2)c1ccc2c(c1)OCO2 (configuration not stated)	·	10	-6%	·	·	·	·	·	-1.4
COc1ccc2c3c([nH]c2c1)[C@@H](CO)N(C(=O)NC(C)C)CC31CN(C(=O)c2ccncc2)C1	1.2	·	·	·	0	13	-0.6	i	·
C[C@H]1CN([C@@H](C)CO)C(=O)c2cc(NC(=O)Nc3ccc(C(F)(F)F)cc3)ccc2O[C@H]1CN(C)S(=O)(=O)c1cn(C)cn1	1.2	·	·	·	0	-4	3.7	i	·
COc1cccc2[nH]c(C(=O)NN)c(N)c12	2.4	40	20%	0.7	-3	-5	3.8	i	5.0
C[C@H](CO)N1C[C@H](C)[C@@H](CN(C)C)Oc2ncc(C#CC3(O)CCCC3)cc2C1=O	-2.7	·	·	·	3	-3	1.4	i	·
O=C1C=C(c2ccc(OC(F)(F)F)cc2)C[C@@H](c2ccc(Cl)cc2)C1	-2.8	-1	·	·	-13	-15	-6.1	i	3.8
CC(C)NC(=O)Nc1ccc2c(c1)C(=O)N([C@H](C)CO)C[C@H](C)[C@@H](CN(C)C(=O)NC(C)C)OCCCC[C@H](C)O2	-24	·	·	·	4	16	1.6	i	·
CCN1[C@H](C(=O)NCc2ccc(F)cc2)[C@@H](CO)[C@@H]2Cn3c(ccc(-c4ccccc4OC)c3=O)[C@@H]21	1.7	·	·	·	-4	-9	-0.6	i	·

As a short view, some entries already given:
SMILES	MLL AF4-AF9 inh	ALR H2O2 inh	Vif TR-FRET	E coli growth	rRNA inh HTS	rRNA inh HTS OD600	rRNA inh HTS RFP	FGF22 binding	HNF4A DNA FP
CCOC(CNC(=O)CN1C(=O)COc2ccc(S(=O)(=O)N3CCCC3)cc21)OCC	-1.5	0	-1%	0.7	9	8	-3.6	i	0.6
CCn1c(CSc2nnc(-c3ccoc3C)n2C)nc2cc(S(=O)(=O)N(C)C)ccc21	·	5	-2%	0.72	·	·	·	·	0.3
CCC(C)(C)C1CCC2(CC1)NC(=O)N(CC(=O)NCCOc1ccccc1)C2=O (configuration not stated)	-1.1	1	-13%	0.72	16	11	1.6	i	3.5

(more compounds)
SMILES	MLL AF4-AF9 inh	ALR H2O2 inh	Vif TR-FRET	E coli growth	rRNA inh HTS	rRNA inh HTS OD600	rRNA inh HTS RFP	FGF22 binding	HNF4A DNA FP
COc1cc(/C=N/NC(=O)CCc2c(C)n[nH]c2C)cc(OC)c1OC	·	-14	3%	·	·	·	·	·	1.4
Cc1cc(NC(=O)CSc2nc(-c3ccccc3)c(C#N)c(=O)[nH]2)no1	·	·	-21%	0.69	·	·	·	·	-7.4
O=C(CNC(=O)c1ccccc1)OC(C(=O)c1ccccc1)c1ccccc1 (configuration not stated)	0.9	-9	·	0.64	8	13	-0.9	i	1.7
O=S(=O)(Nc1ccncc1Cl)c1cccc(Cl)c1Cl	-3.9	0	·	0.7	-1	-13	-5.1	i	1.8
O=C(Nc1ccn(CCCNCc2ccccc2)c(=O)n1)OCc1ccccc1	-0.9	·	3%	·	-14	-36	2.4	i	-3.6
O=C(Nc1ccc(Cl)c(C(F)(F)F)c1)c1ccncc1	0.1	-6	23%	0.72	-7	-8	-7.7	i	1.8
N/C(=N\S(=O)(=O)c1cccs1)c1ccccc1Cl	-4.2	-3	·	0.66	5	3	0.2	i	-2.1
CC(C)(C)c1ccc(CSc2nc(N)cc(=O)[nH]2)cc1	·	-7	2%	0.67	·	·	·	·	3.6
N#Cc1c(N)nc2c(c1-c1cccs1)CCCC2	-2.4	-9	0%	0.68	7	-6	2.5	i	-0.4
CC(C)n1ncc(C(N)=O)c1N	·	-4	16%	0.73	·	·	·	·	-0.6
CCCn1c(=O)c2ccccc2n2c(SCC(=O)c3cc(C)n(CCOC)c3C)nnc12	·	·	-4%	0.7	·	·	·	·	2.6
N#CC1(NC(=O)Cn2cc(C(F)(F)F)cc(Cl)c2=O)CCCCC1	-1.6	-2	1%	0.68	8	4	-4.0	i	1.9
CN(C)C(=O)c1ccc(-c2ccc([C@@H]3[C@H](CO)N4CCCCN(CC5CC5)C[C@@H]34)cc2)cc1	1.3	·	·	·	2	4	1.0	i	·
CCOC(=O)c1cc2c(ccn2C)n1Cc1cc(C)ccc1C	·	-19	7%	0.73	·	·	·	·	-1.5
OCCn1c(CSc2nnc(-c3ccco3)n2-c2ccccc2)nc2ccc(Cl)cc21	·	·	0%	0.73	·	·	·	·	0.0
CC1CCc2nc(NC(=O)c3ccc(S(=O)(=O)N4CCCc5ccccc54)cc3)sc2C1 (configuration not stated)	·	-13	6%	0.73	·	·	·	·	1.9
CN(C)c1nc2c(c(=O)n(C)c(=O)n2C)n1CC(=O)c1cccs1	2.3	3	·	0.68	8	-2	-9.3	·	-3.6
Cc1c(Cl)cccc1NC(=S)NCc1ccc(F)cc1	6.7	·	-3%	0.68	0	3	-1.5	i	1.2
CC1=NNC(=O)C1CC(=O)N/N=C/c1ccncc1 (configuration not stated)	-0.5	19	?	·	4	7	-1.3	i	-0.1
COc1ccc(C)cc1NC(=O)CCCN1C(=O)C2CC=CCC2C1=O (configuration not stated)	1.2	-6	8%	·	3	-11	6.0	i	2.0
CCOC(=O)N1CCN(C(=O)CCCCn2c(=S)[nH]c3ccsc3c2=O)CC1	-2.8	96*	5%	0.73	-2	-2	0.5	i	-0.8
COc1ccc(NS(=O)(=O)c2ccc(NS(=O)(=O)c3cccc(C(=O)O)c3)cc2)cc1	-1.7	5	·	0.7	7	8	0.9	·	3.3
Cc1ccccc1-c1noc(C2CCCCC2)n1	·	-9	-4%	0.67	·	·	·	·	-2.1
CCCCN(CCCC)CCNC(=O)c1cn(CC)c2ccc(S(=O)(=O)N3CCc4ccccc4C3)cc2c1=O	3.2	-1	·	0.7	-6	-2	-0.9	i	0.4
O=C(NC(=S)Nc1ccc2oc(=O)ccc2c1)c1ccc(-c2cccc(Cl)c2Cl)o1	·	15	?	0.68	·	·	·	·	·
COc1cc(C(=O)Nc2cccc(C)c2C)ccc1OCC(=O)N1CCOCC1	-6.7	-2	-13%	0.66	4	6	-1.5	i	5.2
O=C(NCc1ccco1)c1cc2ccccc2c(=O)o1	·	4	?	0.71	·	·	·	·	-4.8
CO[C@@H]1CN(C)C(=O)c2cc(NC(=O)Nc3ccccc3)ccc2OC[C@H](C)N(CC2CC2)C[C@@H]1C	0.1	·	·	·	0	-3	0.2	i	·
COc1cc(OC)cc(C(=O)N[C@H](C(=O)NC23CC4CC(CC(C4)C2)C3)C(C)C)c1	·	-16	-6%	0.69	·	·	·	·	1.6
Cc1ccc(S(=O)(=O)N(C)c2ccccc2C(=O)N2CCOCC2)cc1	-7.1	-2	·	0.64	9	7	-2.6	i	4.8
CCN(CC(=O)NC1CCS(=O)(=O)C1)C(=O)C(c1ccccc1)c1ccccc1 (configuration not stated)	·	-3	11%&2%	0.71	·	·	·	·	0.1
Nc1cc2c(cc1[N+](=O)[O-])OCO2	1.1	-20	28%	0.68	·	·	·	i	4.8
Cc1c2cnn(CC(=O)N3CCOCC3)c(=O)c2c(C)n1Cc1ccc(F)cc1	3.5	·	·	·	2	0	-4.9	i	3.1
COc1ccc(OCC(=O)Nc2ccc(N3CCOCC3)cc2)c([N+](=O)[O-])c1	17	5	19%	0.66	8	10	2.5	i	-2.6
CC(=O)NCCC1CCN(C(=O)c2cc(COc3ccc(C)nc3)on2)CC1	-0.5	4	-1%	0.63	1	5	0.4	i	2.0
O=C(Nc1ccc(Oc2ccc(S(=O)(=O)N3CCOCC3)cn2)cc1)c1ccco1	·	-3	-9%	0.72	·	·	·	·	3.1
Oc1ccc(-n2cnnn2)cc1	·	-48	27%	0.7	·	·	·	·	0.2
COC1=CC(C)C2CC3OC(O)CC4C(C)=C(OC)C(=O)C(C2(C)C1=O)C34C (configuration not stated)	-1.0	·	·	·	·	·	·	i	-1.7
CC1(C(=O)NS(=O)(=O)c2cccc(OC(F)F)c2)CCN1C(=O)c1ccco1 (configuration not stated)	-61	·	·	·	17	8	1.8	i	14
Cn1ccnc1SCC(=O)NC1CC1	·	·	-2%	0.7	·	·	·	·	-0.9
Cc1cccc(N2CCN(S(=O)(=O)c3ccc(-c4cc(C)no4)s3)CC2C)c1 (configuration not stated)	-4.5	-1	·	0.65	0	3	-1.8	i	-2.4
Cc1ccc(C(=O)Nc2ccc(NC(=O)c3ccc(C)o3)cc2)o1	4.5	-8	·	0.62	-6	0	-2.1	i	-2.0
C[C@@H]1CN([C@@H](C)CO)C(=O)c2cccc(NC(=O)NC3CCCCC3)c2O[C@@H]1CN(C)Cc1ccc(Oc2ccccc2)cc1	4.8	·	·	·	-4	-17	5.6	i	·
c1ccc(OCc2nc(-c3ccncc3)no2)cc1	-8.1	·	10%	0.7	13	10	1.1	i	1.0
CCOC(=O)c1nc(-c2ccccc2)sc1C(C)=O	-1.8	-10	-7%	0.65	-18	-4	-2.2	i	0.8
Cc1ccc(P(=O)(OCCN2CCOCC2)C(C)(C)C)o1 (configuration not stated)	-35	1	0%	0.67	11	1	6.2	i	1.2
CCCCc1ccc(Nc2ncnc3nc[nH]c23)cc1	-8.3	·	-5%	0.67	-9	-16	-4.4	i	-4.8
CCC(C)Oc1ccccc1C1CC(=O)NC2=C1C(=O)CCC2 (configuration not stated)	·	-6	4%	0.72	·	·	·	·	2.7
CO[C@@H]1CN(C)C(=O)c2ccc(NC(=O)C3CCOCC3)cc2OC[C@@H](C)N(CC2CCCCC2)C[C@H]1C	-0.6	·	·	·	-2	-6	0.5	i	·
O=C(C1=C(O)/C(=C/c2ccc(O)cc2)CCC1)C(F)(F)F	·	99*	?	0.78	·	·	·	·	3.4
